Bioassay records: PubChem, ICCB-Longwood Screening Facility, Harvard Medical School
HCMV NEC inh: inhibitors of HCMV UL50-UL53 nuclear egress complex interaction. HTRF UL50-UL53 interaction, normalized percent inhibition. inhibition, % (test concentration not listed). actives 0.15% (n = 190,000). AID 1918969;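 active = both replicates at 50% or more, plus weaker picks with an unusually low signal ratio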;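 note: stock transfer was 100 nL into about 20 µL; 0% = negative control wells and 100% = wells with untagged competitor protein; inactives centre near -12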
GIV Gai3 FP: inhibitors of GIV GBA-motif binding to rat Galpha-i3 | P08753 | Galpha-i3/FITC-GIV peptide fluorescence polarization, 90 min; stronger effect = lower value; scaled: aluminum fluoride 0%, vehicle 100% | percent of control (FP), % (no concentration beside the values) | actives 0.42% (n = 210,000) | AID 1224905;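 active = replicate mean at 85% of control or lower, very high polarization wells dropped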;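 note: wells of about 15 µL received 100 nL stock; the first replicate is given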
Target sequence (P08753 whole entry, looked up): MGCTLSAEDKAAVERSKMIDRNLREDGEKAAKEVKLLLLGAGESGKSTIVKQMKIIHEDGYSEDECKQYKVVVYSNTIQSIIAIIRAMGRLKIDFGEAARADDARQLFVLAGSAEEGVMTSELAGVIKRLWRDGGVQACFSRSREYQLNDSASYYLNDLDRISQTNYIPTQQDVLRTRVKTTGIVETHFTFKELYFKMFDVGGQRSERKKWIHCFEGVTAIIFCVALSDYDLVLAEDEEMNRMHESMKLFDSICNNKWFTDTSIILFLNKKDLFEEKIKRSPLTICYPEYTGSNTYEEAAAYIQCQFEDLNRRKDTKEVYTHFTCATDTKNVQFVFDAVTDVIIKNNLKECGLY
Sa growth 42C: S. aureus growth inhibition; S. aureus RN4220 growth, OD600, 20 h, 42 °C; stronger effect = lower value; relative growth, % (no concentration beside the values); actives 0.53% (n = 170,000);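 active = growth at 42 °C up to 50% and 20 or more points under that at 30 °C, or under 10% at both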;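 note: 300 nL library stock went into each well; scaled to the means of positive and negative controls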
Sa growth 42C second temp: further read-out of Sa growth 42C, marked with its call; relative growth, %; measured here: growth at 30 °C;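 optical density after 20 h as mean of two plates; 100% = untreated growth and lower means inhibition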
Numbers without * were called inactive; . = not tested or not shown; & = joins results of further samples.

Assay codes: A = HCMV NEC inh; B = GIV Gai3 FP; C = Sa growth 42C; D = Sa growth 42C second temp
> CC1=C(c2ccc(C(C)C)cc2)S(=O)(=O)N(CC(=O)Nc2cc(C)cc(C)c2)C1=O
  A: -28	B: 101	C: .	D: .
> COc1ccc(C(=O)Nc2ccc(C(O)(C(F)(F)F)C(F)(F)F)cc2)cc1
  A: .	B: 102	C: 98	D: 56
> O=C1CC(NS(=O)(=O)c2cccnc2)CN1c1ccccc1 (stereo not given)
  A: -14	B: 101	C: 97	D: 90
> COc1cc2c(cc1OC)C(C)N(C(=O)c1cc(C)on1)CC2 (stereo not given)
  A: -14	B: 105	C: 93	D: 81
> Cn1c(SCc2ccon2)nc2ccccc2c1=O
  A: 13	B: 100	C: 91	D: 85
> Cn1c(=O)c(=O)n(C)c2cc(S(=O)(=O)N3CCOc4ccccc43)ccc21
  A: 7	B: 105	C: 102	D: 96
> Cc1onc(-c2c(Cl)cccc2Cl)c1C(=O)N(C)C
  A: -29	B: 101	C: 104	D: 86
> O=S(=O)(N/N=C/c1ccc2c(c1)OCO2)c1ccc(Cl)cc1
  A: -23	B: 100	C: 101	D: 98
> CCOC(=O)CSc1nc2cc3c(cc2c(=O)n1CCCC(=O)NCCc1ccc(OC)c(OC)c1)OCO3
  A: .	B: 101	C: 96	D: 85
> CCOC(=O)C1=C(CN2CCn3cccc3C2C)NC(=O)NC1c1ccc(C)cc1 (stereo not given)
  A: -12	B: 114	C: .	D: .
> Cc1ccc(C(=O)Nc2ccccc2C(=O)OCc2cc(=O)n3nc(C4CC4)sc3n2)cc1
  A: .	B: 104	C: 112	D: 87
> COc1ccc(NC(=O)c2ccc(C(C)(C)C)s2)cc1
  A: 0	B: 105	C: 101	D: 103
> Cc1ccc(-c2cccc3c(C(=O)N4CCN(c5ccccn5)CC4)cc(C)nc23)cc1
  A: -11	B: 113	C: .	D: .
> Cc1ccc(CNc2ccc(O)cc2)s1
  A: 21	B: 75*	C: 68	D: 45
> O=c1cc(C(F)(F)F)[nH]c2c(Br)cccc12
  A: -21	B: 103	C: 3.1*	D: 2.4*
> N#Cc1ccc(CSc2nnc(-c3ccc(Br)cc3)o2)cc1
  A: -14	B: 103	C: 91	D: 87
> Cc1ccc(C)c(N2CCN(c3ncnc4c3nc3n4CCCC3)CC2)c1
  A: .	B: 107	C: 92	D: 90
> COC(=O)c1cc(-c2ccccc2)nc2ccc(C)cc12
  A: .	B: 104	C: 98	D: 84
> CC(C)(C)C(=O)c1sc(NCc2ccco2)c(C(N)=O)c1N
  A: -9	B: .	C: 96	D: 86
> CC(C)CCNC(=O)N1CCC(C)(C(=O)NCc2ccc3c(c2)OCO3)CC1
  A: -15	B: 102	C: .	D: .
> CCn1c(CSc2ccc3c(c2)OCCCO3)nc2cc(S(=O)(=O)N(C)C)ccc21
  A: -12	B: .	C: 84	D: 95
> CCc1nc(C)ccc1OCC(=O)N(CC)CC
  A: .	B: 97	C: 87	D: 92
> CC1=NN(c2cccc(C(=O)O)c2)C(=O)/C1=C\c1ccc(-c2cc([N+](=O)[O-])ccc2C)o1
  A: -28	B: 95	C: .	D: .
> COc1ccccc1CNC(=O)CSc1nc(=O)[nH]c2c1CCCC2
  A: .	B: 97	C: 104	D: 88
> CCN(CC)c1nc(C)nc2ccccc12
  A: -12	B: .	C: 105	D: 86

Assay codes: A = HCMV NEC inh; B = GIV Gai3 FP; C = Sa growth 42C; D = Sa growth 42C second temp
> CCn1ncc(-c2ccnc3cc(C(=O)O)nn23)c1C
  A: 80	B: 105	C: 95	D: 76
> S=C(NCCc1ccc(Cl)cc1)Nc1ccccc1
  A: .	B: 103	C: 63	D: 37
> Cc1ccc(CNC(=O)Cn2ncc3c2-c2ccccc2OC3)cc1
  A: 5	B: 103	C: 94	D: 87
> CCN(CC)C(=O)C1CCN(S(=O)(=O)Cc2ccccc2)CC1
  A: -6	B: 110	C: .	D: .
> NNC(=O)Cc1csc(-c2cccc(-n3cccc3)c2)n1
  A: 13	B: 112	C: 122	D: 83
> Cc1ccnc(N2CCC(C(=O)NCc3ccc(F)cc3)CC2)n1
  A: -29	B: 105	C: 83	D: 81
> CN1C(=O)Cc2cc(S(=O)(=O)CCC(=O)N3CCn4c3nc3ccccc34)ccc21
  A: -22&-21	B: 103&98	C: 97	D: 83
> O=C1/C(=C/c2cccs2)CS/C1=C/c1cccs1
  A: -9	B: 102	C: 101	D: 89
> CCOC(=O)N1CCN(Cc2nnc(-c3ccc4c(c3)OCO4)o2)CC1
  A: .	B: 106	C: 105	D: 88
> Cc1ccccc1CSCC(=O)Nc1sccc1C#N
  A: 2	B: .	C: 121	D: 111
> CCn1c(=O)n(-c2ccc(C)c(C)c2)c2nc(-c3c(C)cc(C)cc3C)nc(C(N)=O)c21
  A: -24	B: 101	C: .	D: .
> CC(C)CCN1C(=O)C2(NN(CCO)C(=Nc3ccccc3)S2)c2ccccc21 (stereo not given)
  A: 8	B: .	C: 88	D: 92
> Cc1ccc(C)c(NC(=O)CCc2nc(-c3cccnc3)no2)c1
  A: -10	B: 104	C: .	D: .
> CCOC(=O)Cc1csc(/C(=N/O)C(N)=O)n1
  A: .	B: 95	C: 108	D: 92
> C=CCn1c(C(CC)CC)nc2ccccc21
  A: -3	B: 111	C: .	D: .
> COc1ccc(CN(C)CC(=O)NC(=O)Nc2ccc(C)cc2C)cc1
  A: -30	B: .	C: 84	D: 89
> OCC(c1ccccc1)C1CCCCC1 (stereo not given)
  A: -6	B: 97	C: 110	D: 86
> N#C/C(=C/c1ccccc1)c1cccc(C#N)c1
  A: -11	B: 106	C: 110	D: 96
> Cc1ccc2c(c1)C(=O)C(=O)N2Cc1ccc(OCCC(C)C)cc1
  A: -5	B: 105	C: 108	D: 88
> Cc1ccc(-c2cc(NC(=O)COC(=O)C3=NNC(=O)CC3)n(-c3ccccc3)n2)cc1
  A: -5	B: .	C: 93	D: 95
> COc1cc(C)ccc1OCC(=O)NN1C(C)CCCC1C (stereo not given)
  A: 0	B: .	C: 110	D: 92
> CCOC(=O)C(CC)Sc1nnc(-c2c[nH]c3ccccc23)n1CCOC (stereo not given)
  A: -31	B: 100	C: 92	D: 86
> CC(C)n1cc(-c2nc(C(C)(C)C)cs2)c(=O)n(Cc2ccccc2)c1=O
  A: -40	B: 106	C: 98	D: 90
> COC(=O)C1C(c2ccc(OC)cc2)c2c([nH][nH]c2=O)CC1(C)O (stereo not given)
  A: -2	B: 111	C: 102	D: 95
> O=S(=O)(Nc1ncccc1OCc1cc(F)cc(F)c1)c1cccc(Cl)c1
  A: -11	B: 99	C: 114	D: 94

Every second line gives: HCMV NEC inh	GIV Gai3 FP	Sa growth 42C	Sa growth 42C second temp
CN(C(=O)CSc1nnc(Nc2ccccc2)s1)C1CCS(=O)(=O)C1 (stereo not given)
  0	.	101	95
COC(=O)c1ccccc1NC(=O)CNc1cc(OC)c(OC)cc1C
  -4	.	102	103
CC1CCCN(Cc2nc3c(c(=O)n(C)c(=O)n3C)n2CCc2ccccc2)C1 (stereo not given)
  .	99	96	90
Cc1cccc(C(=O)Nc2nnc(S(=O)(=O)N3CCC(C)CC3)s2)c1
  -14&-6	105&107	105	63
Nc1nc(SCC(=O)c2ccc(Cl)cc2)n[nH]1
  0	104&99	114	86
CNc1oc(-c2ccc(S(=O)(=O)N3CCCCC3)cc2)nc1C#N
  -14	101	.	.
Cc1cccc(-c2nc(-c3ccc4c(c3)[nH]c(=O)n4C)no2)c1
  .	103&104	93	82
CC(C)Oc1ccc(C(=O)N2CC(=O)Nc3ccc(F)cc3C2c2ccc(F)cc2)cc1 (stereo not given)
  -11	101	78	86
N#Cc1ccccc1SCc1ccccc1
  -5	105	98	86
CC(=O)Nc1ccc(NC=C(C#N)C#N)cc1
  -19	.	90	96
CCC(=O)NCC(c1ccc2c(c1)OCO2)N1CCN(c2ccccc2)CC1 (stereo not given)
  .	104	119	98
COc1ccc(OCC(O)Cn2c(C3CC3)nc3ccccc32)cc1 (stereo not given)
  -27	105	.	.
O=C(NCCNc1nccc(C(F)(F)F)n1)C1CC1
  .	104	125	96
Cc1ccccc1CNC(=O)C(=O)NCC(c1cccs1)S(=O)(=O)c1ccc(Cl)cc1 (stereo not given)
  .	98	117	93
CCOc1ccccc1NC(=O)NCc1ccccc1
  -34	98	111	90
COc1ccc(N=C2SCC(=O)N2Cc2ccccc2)cc1
  -16	103	100	89
CC(=O)N1CCc2cc(S(=O)(=O)NC(CC(C)C)C(=O)N3CCN(c4ccc(F)cc4)CC3)ccc21 (stereo not given)
  -13	108	102	89
NC(=O)NC(=O)CC1S/C(=N/N=C2\CSC(=O)N2)NC1=O (stereo not given)
  -11	103	99	92
CCCNS(=O)(=O)c1nc2nc(C)cc(C)n2n1
  -19	.	83	74
O=C(CCOc1ccccc1)NCC(c1ccco1)N1CCCCC1 (stereo not given)
  -26	.	77	89
COc1ccc(CSc2nnc(SCc3ccc(C(=O)O)cc3)s2)cc1
  4	.	87	98
O=C(Nc1ccc(F)cc1F)C(Cc1ccccc1)N1Cc2ccccc2C1=O (stereo not given)
  .	105	97	86
Cc1oc(C(=O)O)cc1CSc1ccccc1C(=O)O
  38	98	94	117
Cc1cc(=O)c2cc(C(=O)Nc3ccc(C)c(C)c3)ccc2[nH]1
  -16	98	97	90
COc1cc(C2c3c(-c4cc(C)ccc4O)n[nH]c3C(=O)N2CCCO)ccc1OCCC(C)C (stereo not given)
  -40&-18	99&106	93	83
Cc1nnc(SCC(=O)c2c[nH]c3ccccc23)n(N)c1=O
  -15	.	94	95
CCOC(=O)c1sc(NC(=O)CSC2=NCCS2)nc1C
  -3	113	.	.
O=C(NCc1cccnc1)C1c2ccccc2C(=O)N1Cc1ccccc1 (stereo not given)
  .	103	99	82
CCOC(=O)C1CCCN(C(=O)Cn2ncc3c([nH]c4ccc(C)cc43)c2=O)C1 (stereo not given)
  .	104	83	88
Cc1cc(NC(=O)COC(=O)c2ccccc2)no1
  4	.	101	90

Every second line gives: HCMV NEC inh	GIV Gai3 FP	Sa growth 42C	Sa growth 42C second temp
CCN1CCc2c(sc(-n3cccc3)c2C(C)NC(=O)Nc2ccccc2C)C1 (stereo not given)
  .	113	105	89
O=C(Cn1nc(-c2ccccc2)ccc1=O)NCCN1CCN(c2cccc(Cl)c2)CC1
  -10	105	93	68
Cc1ccc(C)c2[nH]c(=O)c(C(c3nnnn3C3CCCC3)N3CCCC3)cc12 (stereo not given)
  -43	104	107	96
O=C1Nc2ccc(Br)cc2/C1=N/N1C(=O)C(O)=CC1(O)c1ccccc1 (stereo not given)
  -45	.	87	84
O=C(Cn1nnc(-c2cccs2)n1)OCc1nc2sc3c(c2c(=O)[nH]1)CCC3
  -22	.	85	93
O=C(CSc1nc(-c2ccccc2)cc(C(F)(F)F)n1)N1CCCCC1
  -14	100	84	90
CNc1oc(COc2ccc(C)cc2)nc1C#N
  -13	107	90	69
C=CCN(CC=C)C(=O)Nc1ccccc1
  -6	101	113	98
O=C(O)CSc1nnc(-c2ccccc2Br)n1C1CCCCC1
  -1	.	94	89

Sorted by length of the SMILES (ascending): 16 of the compounds above
Every second line gives: HCMV NEC inh	GIV Gai3 FP	Sa growth 42C	Sa growth 42C second temp
C=CCN(CC=C)C(=O)Nc1ccccc1
  -6	101	113	98
CNc1oc(COc2ccc(C)cc2)nc1C#N
  -13	107	90	69
Cc1cc(NC(=O)COC(=O)c2ccccc2)no1
  4	.	101	90
Cc1oc(C(=O)O)cc1CSc1ccccc1C(=O)O
  38	98	94	117
CCOC(=O)c1sc(NC(=O)CSC2=NCCS2)nc1C
  -3	113	.	.
O=C(O)CSc1nnc(-c2ccccc2Br)n1C1CCCCC1
  -1	.	94	89
Cc1nnc(SCC(=O)c2c[nH]c3ccccc23)n(N)c1=O
  -15	.	94	95
COc1ccc(CSc2nnc(SCc3ccc(C(=O)O)cc3)s2)cc1
  4	.	87	98
O=C(CSc1nc(-c2ccccc2)cc(C(F)(F)F)n1)N1CCCCC1
  -14	100	84	90
O=C(Nc1ccc(F)cc1F)C(Cc1ccccc1)N1Cc2ccccc2C1=O (stereo not given)
  .	105	97	86
CCN1CCc2c(sc(-n3cccc3)c2C(C)NC(=O)Nc2ccccc2C)C1 (stereo not given)
  .	113	105	89
O=C1Nc2ccc(Br)cc2/C1=N/N1C(=O)C(O)=CC1(O)c1ccccc1 (stereo not given)
  -45	.	87	84
Cc1ccc(C)c2[nH]c(=O)c(C(c3nnnn3C3CCCC3)N3CCCC3)cc12 (stereo not given)
  -43	104	107	96
O=C(Cn1nc(-c2ccccc2)ccc1=O)NCCN1CCN(c2cccc(Cl)c2)CC1
  -10	105	93	68
CCOC(=O)C1CCCN(C(=O)Cn2ncc3c([nH]c4ccc(C)cc43)c2=O)C1 (stereo not given)
  .	104	83	88
COc1cc(C2c3c(-c4cc(C)ccc4O)n[nH]c3C(=O)N2CCCO)ccc1OCCC(C)C (stereo not given)
  -40&-18	99&106	93	83
